FGF22 binding: shifts melting point of recombinant human FGF22 | Q9HCT0 | 340,000 tested, 1.5% active | recombinant FGF22 thermal shift, SYPRO orange fluorescence; percent of sucrose octasulfate shift, DMSO zero | AID 651658 | calls only at 9.99 µM;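 active means melting point raised past a set limit in the mean and every replicate; three in four hits are not shown here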
Target sequence (Q9HCT0 whole entry, looked up): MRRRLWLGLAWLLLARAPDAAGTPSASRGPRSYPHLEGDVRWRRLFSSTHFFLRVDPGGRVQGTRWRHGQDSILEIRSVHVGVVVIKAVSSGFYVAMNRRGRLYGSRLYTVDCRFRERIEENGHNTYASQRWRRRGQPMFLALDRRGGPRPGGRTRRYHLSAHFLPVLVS
Ecoli rRNA inh: inhibits bacterial ribosomal RNA function over humanized ribosomes. E. coli WT GFP vs humanized-ribosome RFP mutants, fluorescence, 24 h; active compounds read low; DMSO median 0, no signal -100. GFP signal change (wild-type ribosome), % (no concentration beside the values). 350,000 tested, 1.6% active;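 active means significant combined selectivity score with lowered wild-type GFP, culture density cut under 30%, mutant RFP and density less affected; inactive means any of these conditions unmet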; further: one replicate is shown; some compounds called inactive have numbers as strong as hits
Ecoli rRNA inh OD600: further read-out of Ecoli rRNA inh, marked with its call; OD600 change, %; measured here: OD600 growth;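 optical density of the mix in the first replicate; 0 = DMSO median and -100 = no signal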
Ecoli rRNA inh RFP: also measured in Ecoli rRNA inh; calls as there; RFP signal change, %; measured here: RFP humanized mutant strains;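 first replicate; 0 = DMSO median and -100 = no signal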
An asterisk follows results filed as active; i = inactive. This is a subset; count on the stated rates, not on these rows.

SMILES	FGF22 binding	Ecoli rRNA inh	Ecoli rRNA inh OD600	Ecoli rRNA inh RFP
Cc1noc(C)c1NC(=O)N(C)C[C@@H]1Oc2ccc(NS(=O)(=O)c3ccccc3)cc2CC(=O)N([C@H](C)CO)C[C@@H]1C	i	4	14	1.2
CNC[C@@H]1Oc2c(NC(=O)Nc3c(C)noc3C)cccc2C(=O)N([C@H](C)CO)C[C@@H]1C	i	4	5	0.2
Cc1ccc(S(=O)(=O)NCC[C@H]2CC[C@H](NC(=O)c3cccnc3)[C@H](CO)O2)cc1	i	-5	-6	3.9
C[C@@H]1CCCCO[C@H](CN(C)Cc2ccc(C(F)(F)F)cc2)[C@H](C)CN([C@@H](C)CO)C(=O)c2cc(NS(=O)(=O)c3ccc(F)cc3)ccc2O1	i	0	-16	8.7
C[C@@H]1C=CCCO[C@]12C(=O)N(Cc1ccc(Br)cc1)c1cccc(Br)c12	i	16	18	-4.4
C[C@@H]1CCCCO[C@@H](CN(C)C(=O)Cc2ccccc2)[C@@H](C)CN([C@@H](C)CO)C(=O)c2cc(NS(=O)(=O)c3cn(C)cn3)ccc2O1	i	2	1	0.3
CC=Cc1ccc2n(c1=O)C[C@H]1[C@H](CO)[C@@H](C(=O)NCc3ccccc3)N(CCC(F)(F)F)[C@@H]21 (mixture of isomers)	i	1	-1	0.9
C[C@H]1CCCCO[C@@H](CN(C)C(=O)Nc2ccccc2)[C@@H](C)CN([C@@H](C)CO)C(=O)c2cc(N(C)C)ccc2O1	i	-4	4	1.3
C[C@@H]1CN([C@@H](C)CO)C(=O)c2cc(NC(=O)Cn3cnnn3)ccc2O[C@@H]1CN(C)S(=O)(=O)c1ccc(F)cc1	i	1	4	0.1
C[C@H](O)C#Cc1ccc2c(c1)O[C@H](CN(C)C)[C@H](C)CN([C@@H](C)CO)S2(=O)=O	i	3	10	0.2
CCC(=O)N(C)C[C@H]1Oc2ncc(C#C[C@@H](C)O)cc2C(=O)N([C@H](C)CO)C[C@H]1C	i	3	6	-2.7
C[C@H](O)C#Cc1cnc2c(c1)C(=O)N([C@@H](C)CO)C[C@@H](C)[C@H](CN(C)C(=O)Cc1ccncc1)O2	i	-2	1	-0.2
C[C@@H]1CCCCO[C@H](CN(C)C(=O)Nc2ccc(F)cc2)[C@H](C)CN([C@H](C)CO)C(=O)c2cc(NC(=O)Nc3ccc(C(F)(F)F)cc3)ccc2O1	i	6	10	0.0
C[C@H](CO)N1C[C@H](C)[C@@H](CN(C)C(=O)CC2CC2)Oc2cc(-c3ccccc3)ccc2S1(=O)=O	i	-4	-15	1.2
O=C(C[C@@H]1C[C@@H]2c3cc(NC(=O)C4CCC4)ccc3O[C@@H]2[C@H](CO)O1)NCCc1ccccc1	i	-4	-1	-3.7
O=C(C[C@H]1CC[C@@H]2[C@H](COC[C@H](O)CN2Cc2cccc(F)c2)O1)NCc1ccncc1	i	2	-4	-4.2
CN(C)CC(=O)N1[C@@H]2Cn3c(ccc(-c4ccccc4)c3=O)[C@H]1[C@@H](C(=O)N1CCN(C)CC1)[C@@H]2CO	i	-1	6	-2.0
CC(=O)N1C[C@H]2[C@@H](c3ccccc31)[C@H](CO)N2C(=O)Nc1ccc(F)cc1	i	1	-1	-1.1
O=C(c1cccc(F)c1)N1CCCCN2[C@H](CO)[C@H](c3ccc(-c4cncnc4)cc3)[C@@H]2C1	i	1	15	0.5
C[C@@H]1CN([C@@H](C)CO)C(=O)c2cc(-c3cccc(F)c3)cnc2O[C@H]1CN(C)C(=O)C1CCCCC1	i	-5	3	-1.1
O=C(Nc1ccc(Cl)cc1)N[C@@H]1CC[C@@H](CCn2cc(Cc3ccccc3)nn2)O[C@H]1CO	i	-8	-18	4.9
CCS(=O)(=O)NCC[C@H]1CC[C@@H](NS(=O)(=O)c2ccccc2C)[C@@H](CO)O1	i	3	8	-0.7
CCc1csc(N2[C@H](C#N)[C@@H](c3ccc(-c4cccc(F)c4)cc3)[C@@H]2CO)n1	i	-14	-46	27
Cc1cccc(S(=O)(=O)N2C[C@H](O)COC[C@@H]3O[C@@H](CC(=O)NCCCN4CCOCC4)CC[C@H]32)c1	i	-1	-6	-0.2
CN1C[C@H]2[C@@H](c3ccccc31)[C@@H](CO)N2C(=O)c1cccnc1	i	-1	1	-0.1

Among those listed so far, 3 contain a CF3 group.
SMILES	FGF22 binding	Ecoli rRNA inh	Ecoli rRNA inh OD600	Ecoli rRNA inh RFP
C[C@@H]1CCCCO[C@H](CN(C)Cc2ccc(C(F)(F)F)cc2)[C@H](C)CN([C@@H](C)CO)C(=O)c2cc(NS(=O)(=O)c3ccc(F)cc3)ccc2O1	i	0	-16	8.7
CC=Cc1ccc2n(c1=O)C[C@H]1[C@H](CO)[C@@H](C(=O)NCc3ccccc3)N(CCC(F)(F)F)[C@@H]21 (mixture of isomers)	i	1	-1	0.9
C[C@@H]1CCCCO[C@H](CN(C)C(=O)Nc2ccc(F)cc2)[C@H](C)CN([C@H](C)CO)C(=O)c2cc(NC(=O)Nc3ccc(C(F)(F)F)cc3)ccc2O1	i	6	10	0.0

More structures
SMILES	FGF22 binding	Ecoli rRNA inh	Ecoli rRNA inh OD600	Ecoli rRNA inh RFP
O=C(C[C@H]1CC[C@@H]2[C@H](COC[C@@H](O)CN2Cc2ccncc2)O1)NCc1ccncc1	i	2	11	2.1
COc1ccc(S(=O)(=O)N(C)C[C@H]2OCCCC[C@H](C)Oc3ccc(NS(=O)(=O)c4ccc(C)cc4)cc3C(=O)N([C@H](C)CO)C[C@H]2C)cc1	i	0	6	-0.4
COCC(=O)N1CC2(C1)[C@H](c1ccc(C3=CCCC3)cc1)[C@H](CO)N2C(=O)COC	i	1	-1	-2.1
COc1ccc(NC(=O)Nc2ccc3c(c2)CC(=O)N([C@H](C)CO)C[C@H](C)[C@H](CN(C)C(=O)Nc2ccc(OC)cc2)O3)cc1	i	1	-3	0.2
CC(C)NC(=O)Nc1ccc2c(c1)C(=O)N([C@@H](C)CO)C[C@@H](C)[C@@H](CN(C)Cc1ccccc1)OCCCC[C@H](C)O2	i	-6	-2	-2.4
O=C(C1CC1)N1CC2(C1)[C@H](c1ccccc1)[C@@H](CO)N2Cc1cncnc1	i	2	5	-2.5
CO[C@@H]1CN(C)C(=O)c2cc(NC(=O)CC(F)(F)F)ccc2OC[C@H](C)N(C(=O)C2CC2)C[C@H]1C	i	2	9	1.1
CO[C@@H](CN(C)C(=O)c1cnccn1)[C@H](C)CN([C@H](C)CO)S(=O)(=O)c1ccc(C)cc1	i	2	3	-1.5
C[C@H]1CN([C@@H](C)CO)C(=O)c2cc(C3=CCCC3)cnc2O[C@@H]1CN(C)C(=O)c1ccccn1	i	-2	3	-1.5
C[C@H](CO)N1C[C@H](C)[C@@H](CN(C)C(=O)Nc2ccc(C(F)(F)F)cc2)OCCCC[C@H](C)Oc2ccc(NC(=O)C3CCCCC3)cc2C1=O	i	-3	-4	-3.4
CCCN(C)C[C@@H]1Oc2ncc(C#Cc3ccccc3)cc2C(=O)N([C@H](C)CO)C[C@@H]1C	i	4	0	2.0
COc1ccc(NC(=O)N2C[C@H](O)COC[C@H]3O[C@@H](CC(=O)NC4Cc5ccccc5C4)CC[C@@H]32)cc1	i	0	-8	0.1
CN(C)C(=O)[C@H]1[C@H](CO)[C@H]2Cn3c(ccc(-c4ccccc4)c3=O)[C@H]2N1Cc1ccccc1F	i	-4	-5	-3.7
COc1ccc(NC(=O)N(C)C[C@H]2Oc3ccc(NS(=O)(=O)c4ccc(OC)cc4)cc3C(=O)N([C@@H](C)CO)C[C@H]2C)cc1	i	-1	-6	-1.3
CN1C(=O)c2cc(NC(=O)c3ccc(F)c(F)c3)ccc2OC[C@H]2O[C@@H](CC(=O)Nc3ccc4c(c3)COC4)CC[C@@H]21	i	-10	-13	-0.2
C[C@@H]1CCCCO[C@@H](CN(C)S(=O)(=O)c2cccs2)[C@@H](C)CN([C@@H](C)CO)C(=O)c2cc(NS(=O)(=O)c3cccs3)ccc2O1	i	-2	-12	1.0
CC=Cc1ccc2n(c1=O)C[C@H]1[C@H](CO)[C@@H](C(=O)N[C@H](C)c3ccccc3)N(C)[C@@H]21 (mixture of isomers)	i	-3	-4	-4.7
COc1ccc(CN(C)C[C@@H]2Oc3c(NC(=O)Nc4ccccc4)cccc3C(=O)N([C@@H](C)CO)C[C@H]2C)cc1	i	-4	2	-0.6
COCC(=O)N(C)C[C@@H]1Oc2cc(-c3cccnc3)ccc2S(=O)(=O)N([C@@H](C)CO)C[C@H]1C	i	2	0	-0.8
CCCNC(=O)[C@H]1[C@H](CO)[C@H]2Cn3c(ccc(-c4ccccc4F)c3=O)[C@@H]1N2CC1CC1	i	2	0	-1.2
N#C[C@@H]1[C@H](c2ccccc2-c2ccccc2)[C@H](CO)N1C(=O)NC1CCCC1	i	-5	-41	-3.5
COc1ccc(S(=O)(=O)Nc2cccc3c2O[C@@H](CN(C)Cc2ccc(C(=O)Nc4ccccc4N)cc2)[C@@H](C)CN([C@@H](C)CO)C3=O)cc1	i	1	-5	0.7
CO[C@@H]1CN(C)C(=O)c2cc(NC(=O)c3ccccc3F)ccc2OC[C@H](C)N(C(=O)c2ccccc2F)C[C@H]1C	i	1	3	-3.5
C[C@H](NC(=O)C[C@@H]1CC[C@H]2[C@@H](COC[C@H](O)CN2C)O1)c1ccccc1	i	10	12	-1.6
C[C@@H]1CN([C@H](C)CO)C(=O)Cc2cc(NC(=O)Nc3ccc4c(c3)OCO4)ccc2O[C@H]1CN(C)C(=O)Nc1cccc2ccccc12	i	-1	-2	-0.5

Two compounds drawn at random from the list so far, as already listed:
SMILES	FGF22 binding	Ecoli rRNA inh	Ecoli rRNA inh OD600	Ecoli rRNA inh RFP
COCC(=O)N1CC2(C1)[C@H](c1ccc(C3=CCCC3)cc1)[C@H](CO)N2C(=O)COC	i	1	-1	-2.1
CCCN(C)C[C@@H]1Oc2ncc(C#Cc3ccccc3)cc2C(=O)N([C@H](C)CO)C[C@@H]1C	i	4	0	2.0

(further entries)
SMILES	FGF22 binding	Ecoli rRNA inh	Ecoli rRNA inh OD600	Ecoli rRNA inh RFP
C[C@H](CO)N1C[C@H](C)[C@@H](CN(C)C(=O)C2CCOCC2)Oc2ncc(C3=CCCC3)cc2C1=O	i	-1	7	-1.6
CCCNC(=O)Nc1ccc2c(c1)OC[C@@H](C)N(Cc1ccccn1)C[C@H](C)[C@H](OC)CN(C)C2=O	i	-7	1	0.1
C[C@H](NC(=O)C[C@@H]1CC[C@@H](NS(=O)(=O)c2cccc(F)c2)[C@H](CO)O1)c1ccccc1	i	4	15	-0.8
Cc1ccc(S(=O)(=O)Nc2ccc3c(c2)C(=O)N([C@@H](C)CO)C[C@H](C)[C@H](CN(C)S(=O)(=O)c2ccc(Cl)cc2)O3)cc1	i	4	-4	2.5
C[C@H]1CN([C@@H](C)CO)C(=O)Cc2cc(NC(=O)CCC(F)(F)F)ccc2O[C@@H]1CN(C)Cc1ccc(Cl)c(Cl)c1	i	-6	-19	1.4
CCC(=O)Nc1ccc2c(c1)OC[C@H](C)N(Cc1cccc(F)c1)C[C@H](C)[C@@H](OC)CN(C)C2=O	i	-3	-6	4.2
COCCNC(=O)C[C@H]1CC[C@H]2[C@@H](COC[C@@H](O)CN2Cc2ccc(Cl)c(Cl)c2)O1	i	-7	-11	-0.8
COc1cccc(S(=O)(=O)N(C)C[C@H]2Oc3cc(C4=CCCCC4)ccc3S(=O)(=O)N([C@H](C)CO)C[C@@H]2C)c1	i	2	11	-1.0
CCc1c(-c2cccc(OC)c2)ncn1CCc1ccccc1OC	i	-54	-79	-19
O=C(Cc1ccccn1)N[C@H]1CC[C@@H](CCNC(=O)c2cc(Cl)cc(Cl)c2)O[C@@H]1CO	i	-1	3	1.6
COCC(=O)Nc1ccc2c(c1)[C@H]1C[C@H](CC(=O)NCc3cccc(F)c3)O[C@@H](CO)[C@H]1O2	i	2	1	-0.7
C[C@H](CO)N1C[C@H](C)[C@@H](CN(C)Cc2ccc(C(F)(F)F)cc2)Oc2ccc(NS(=O)(=O)c3cccs3)cc2CC1=O	i	-4	-47	3.4
CO[C@H]1CN(C)C(=O)c2cc(NC(C)=O)ccc2OC[C@@H](C)N(C(=O)Cc2cccnc2)C[C@H]1C	i	1	-4	0.5
COc1cccc(NC(=O)N2[C@H](CO)[C@H](c3ccccc3)[C@H]2CNCC(C)C)c1	i	0	4	2.8
C[C@@H]1CN([C@@H](C)CO)C(=O)c2cc(NC(=O)Cn3cnnn3)ccc2O[C@@H]1CN(C)Cc1ccc(C(=O)Nc2ccccc2N)cc1	i	0	-3	-1.9
CCC(=O)Nc1ccc2c(c1)C(=O)N(C)[C@@H]1CC[C@@H](CC(=O)NC3CCCC3)O[C@H]1CO2	i	3	5	-2.7
Cc1ccc(S(=O)(=O)Nc2cccc3c2O[C@@H](CN(C)Cc2ccccc2)[C@@H](C)CN([C@@H](C)CO)C3=O)cc1	i	1	0	-0.6
Cc1ccc(S(=O)(=O)N(C)C[C@@H]2Oc3ccc(NC(=O)CCCCCC(=O)Nc4ccccc4N)cc3CC(=O)N([C@H](C)CO)C[C@H]2C)cc1	i	-1	3	-2.8
COCC(=O)N1[C@H](CO)[C@@H]2c3ccccc3N(C(=O)Nc3ccccc3F)C[C@@H]21	i	3	8	-0.9

Shown comma-delimited: two of the compounds above
smiles,FGF22 binding,Ecoli rRNA inh,Ecoli rRNA inh OD600,Ecoli rRNA inh RFP
COc1cccc(S(=O)(=O)N(C)C[C@H]2Oc3cc(C4=CCCCC4)ccc3S(=O)(=O)N([C@H](C)CO)C[C@@H]2C)c1,i,2,11,-1.0
CCc1c(-c2cccc(OC)c2)ncn1CCc1ccccc1OC,i,-54,-79,-19
